Mito fusion act – blocks mitochondrial division or promotes mitochondrial fusion. Potency, µM (highest dose often 46.1 µM), without a hit: at the highest dose growth rescue (activation), usual class: activators. 320,000 tested, 0.23% active. S. cerevisiae fusion-defective mutant growth rescue, CellTiterGlo 48 h;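 further: potency means the concentration at half of the fitted maximal effect; % of control where 0% means no effect; nearly all actives have a fitted effect of over 45% in size; temperature-sensitive fusion mutants such as fzo1-1 at 37 °C on non-fermentable ethanol glycerol medium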
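S. cerevisiae fusion-defective temperature-sensitive mutants (e.g. fzo1-1, mgm1-5) grown 48 h at 37C in YPEG (ethanol/glycerol non-fermentable) medium with 23 nl compound per well; growth rescue read as CellTiterGlo luminescence.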
Chronic BCR inh – chronic active BCR signaling inhibition. 340,000 tested, 0.05% active. Potency, µM (doses to about 46.1 µM), for inactives: at the top dose ratio change, negative = lower green/red ratio, usual class: inhibitors. ABC-DLBCL IkBa-CBG/CBR reporter, luminescence ratio, 4 h; active means well fitted inhibition curve with a large enough effect in the signal ratio, with a control signal flat, not every such curve was filed as active; inconclusive means small, poorly fitted or top-dose-only effect, or effect the other way, or a change in a side signal; the % refers to the signal ratio;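 further: potency means the concentration at half of the fitted maximal effect; plate controls were basal doxycycline-induced cells for no effect and cells given 10 µM MG132 for full effect; MG132 reads +100%, hits lower the ratio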
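Doxycycline induced both beetle luciferases in TMD8 lymphoma cells; IKK-driven degradation limits the IkappaBalpha-fused green signal, while red luminescence normalises for cell number and nonspecific effects. Compounds tested up to 46 uM, 4 hrs.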
Eya2 inh – blocks the phosphatase activity of human Eya2. 330,000 tested, 0.006% active. recombinant Eya2, OMFP fluorescence dephosphorylation (OMFP is methylfluorescein phosphate). Potency, µM (highest dose often 76.9 µM), inactives show at the top dose activity, negative = inhibition, usual class: inhibitors. AID 488837; further: potency means the concentration at half of the fitted maximal effect; on the % scale 0 is the no-effect control and ±100 the full control effect
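Eya2 protein (added as 0.2 uM solution) was preincubated with compound for 10 min at ambient temperature in 50 mM HEPES pH 7.5, 50 mM NaCl, 5 uM MgCl2, 0.05% BSA, 1 mM DTT. OMFP (added at 50 uM) then reacted 10 min; fluorescence read at 485/525 nm.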
MBNL1 CUG block – MBNL1-poly(CUG) RNA binding inhibition; TR-FRET MBNL1-His/biotin-(CUG)12 binding, 665/545 ratio; 280,000 tested, 0.036% active; Potency, µM (top dose mostly 57.5 µM), for inactives: at the highest dose activity change, negative = inhibition, actives largely listed as inhibitors; Q9NR56; active means well fitted inhibition curve with a large enough effect in the signal ratio, with a control signal flat, not every such curve was filed as active; inconclusive means small, poorly fitted or top-dose-only effect, or effect the other way, or a change in a side signal; inactive means no such curve, though single readings can be large or run the other way; the % refers to the signal ratio; further: potency means the concentration at half of the fitted maximal effect; on the % scale 0 is the no-effect control and ±100 the full control effect
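Ratiometric TR-FRET (665 over 545 nm, excitation 340 nm) tracks disruption of MBNL1-His/biotin-(CUG)12 complex after 60 min at room temperature, with compounds at 92 nM to 58 uM final.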
Menin-MLL TR inh – menin-MLL binding inhibition, Texas Red mutant peptide; O00255; Menin + Texas Red MLL mutant peptide, fluorescence polarization; Potency, µM (top dose mostly 61.6 µM), for the others: at the highest dose FP activity change, negative = inhibition, most hits filed as inhibitors; 270,000 tested, 0.23% active; AID 1768; active means well fitted inhibition curve with a large enough effect in the polarisation, with a control signal flat, not every such curve was filed as active; inconclusive means small, poorly fitted or top-dose-only effect, or effect the other way, or a change in a side signal; inactive means no such curve, though single readings can be large or run the other way; the % refers to the polarisation; further: potency means the concentration at half of the fitted maximal effect; % of control where 0% means no effect; many of its hits are not listed in these tables
PKM2 activator – increases activity of human pyruvate kinase M2; P14618; purified PKM2, Kinase-Glo ATP luminescence, activation; response scale: 0% is enzyme alone, no compound; Potency, µM (titrated, usually from 57.5 µM), inactives show at the top dose activation, most hits filed as activators; 260,000 tested, 0.34% active; further: potency means the concentration at half of the fitted maximal effect; on the % scale 0 is the no-effect control and ±100 the full control effect; nearly all actives have a fitted effect of over 55% in size
Target sequence (P14618 whole entry, looked up): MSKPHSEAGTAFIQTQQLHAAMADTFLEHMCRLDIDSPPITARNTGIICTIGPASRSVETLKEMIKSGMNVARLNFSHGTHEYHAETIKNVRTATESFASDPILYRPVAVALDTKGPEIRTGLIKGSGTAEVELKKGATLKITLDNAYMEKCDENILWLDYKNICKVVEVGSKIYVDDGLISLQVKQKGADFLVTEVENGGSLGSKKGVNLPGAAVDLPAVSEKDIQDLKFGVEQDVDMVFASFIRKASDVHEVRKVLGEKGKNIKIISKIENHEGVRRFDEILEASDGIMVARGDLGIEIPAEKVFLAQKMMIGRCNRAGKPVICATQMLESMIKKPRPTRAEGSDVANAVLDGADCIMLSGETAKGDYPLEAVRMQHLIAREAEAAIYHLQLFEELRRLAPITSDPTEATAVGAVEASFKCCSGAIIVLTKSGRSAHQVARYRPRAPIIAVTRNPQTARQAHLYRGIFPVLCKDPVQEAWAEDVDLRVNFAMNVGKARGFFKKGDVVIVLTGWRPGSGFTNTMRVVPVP
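Purified hPK-M2 (>95%) run at intermediate activity with 0.1 mM ADP and 0.5 mM PEP in 50 mM imidazole pH 7.2, KCl, MgCl2; 1 h room temperature. ATP formed read by Kinase-Glo luminescence; normalized to uninhibited and no-enzyme controls.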
S-ASM inh – blocks human secretory acid sphingomyelinase; placental ASM, HMU-PC fluorogenic substrate, 60 min; Potency, µM (series often up to 57.5 µM), without a hit: at the highest dose activity change, negative = inhibition, most hits filed as inhibitors; 340,000 tested, 0.006% active; further: potency means the concentration at half of the fitted maximal effect
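Fluorogenic HMU-PC substrate (9 uM final) is turned over by placental ASM in 60 min at 37 C after a 10 min compound preincubation. Reaction ended by alkaline stop (pH 10), with fluorescence read at 386/447 nm.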
USP2a block – USP2a (human) protease inhibition; USP2 core, Ub-CHOP2 coupled fluorogenic reporter, 485/531; Potency, µM (highest dose often 38.3 µM), without a hit: at the highest dose activity change, negative = inhibition, actives largely listed as inhibitors; 330,000 tested, 0.01% active;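 further: potency means the concentration at half of the fitted maximal effect; plate controls were DMSO wells for no effect and full inhibition by NEM control for full effect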
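Cell-free coupled assay: 10nM USP2 core preincubated 30min RT with compound in Tris-HCl pH 8.0/CaCl2/CHAPS buffer, then 25nM Ub-CHOP2 and 25nM reporter substrate; fluorescence (Ex 485/Em 531) read after 60min RT, normalized to NEM inhibition, concentration-response curves fitted.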
TSHR antagonist – blocks TSH signaling through the human TSH receptor. AID 504810. 330,000 tested, 0.2% active. activity change, negative = inhibition, % at 11.5 µM. TSHR-expressing cells, TSH-stimulated cAMP HTRF, 2 h; active compounds read low. P16473;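 active means activity change below a set negative limit, meaning inhibition stronger than a set level, cut at about -70% in these data; inconclusive means activity change between two set negative limits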; further: on the % scale 0 is the no-effect control and ±100 the full control effect
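TSHR-expressing cells, 200/well, pre-treated with compound, then stimulated with EC80 TSH (4nM final) for 2 hours at 37 deg C. cAMP measured by competitive HTRF: anti-cAMP cryptate antibody in lysis buffer plus cAMP-d2, read after 30 minutes at room temperature.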
GALK inh – galactokinase (human) inhibition. P51570. Purified GALK, Kinase-Glo residual ATP luminescence. Potency, µM (titrated, usually from 57.5 µM), inactives show top-dose activity change, negative = inhibition, usual class: inhibitors. 270,000 tested, 0.007% active; further: potency means the concentration at half of the fitted maximal effect; on the % scale 0 is the no-effect control and ±100 the full control effect
Target sequence (P51570 whole entry, looked up): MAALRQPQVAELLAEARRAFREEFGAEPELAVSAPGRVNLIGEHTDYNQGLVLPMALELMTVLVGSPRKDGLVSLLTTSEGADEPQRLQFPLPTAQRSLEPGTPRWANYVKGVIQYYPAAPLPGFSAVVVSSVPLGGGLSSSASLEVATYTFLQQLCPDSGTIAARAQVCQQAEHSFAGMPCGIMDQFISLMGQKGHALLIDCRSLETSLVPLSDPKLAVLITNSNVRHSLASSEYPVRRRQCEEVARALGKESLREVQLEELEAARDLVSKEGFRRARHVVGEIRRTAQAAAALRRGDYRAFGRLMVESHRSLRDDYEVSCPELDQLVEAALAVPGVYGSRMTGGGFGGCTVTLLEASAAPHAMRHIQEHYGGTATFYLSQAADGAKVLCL
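GALK at 5 nM final was combined with compound, 35 uM ATP and 100 uM galactose in HEPES pH8.0 with MgCl2 and DTT. The reaction ran one hour at room temperature before luminescent ATP detection.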
Numbers without * were called inactive; ? = inconclusive; nt = no result given; & = joins results of further samples; [ ] = remark or other dose. Unless noted, the call rests on the fitted dose curve; in most records, active means well fitted curve in the direction sought with a large enough effect; inconclusive means small, poorly fitted or top-dose-only effect, or another doubt; inactive means no such curve, though single readings can be large; an effect the other way counts as inactive or inconclusive.

SMILES	Mito fusion act	Chronic BCR inh	Eya2 inh	MBNL1 CUG block	Menin-MLL TR inh	PKM2 activator	S-ASM inh	USP2a block	TSHR antagonist	GALK inh
Cc1cc(Cl)ccc1OCCCC(=O)NO	6%	?	4%	-12%	-6%	-7%	-16%	1%	24	-1%
NCCCCCCNS(=O)(=O)c1cccc2c(Cl)cccc12	nt	nt	nt	nt	?	nt	-6%	nt	nt	nt
CC(C)C(=O)N1CCN(C2=NS(=O)(=O)c3ccccc32)CC1	-1%	4%	2%	-1%	0%	6%	-5%	1%	0	-6%
COCCN(C(=O)COC(=O)c1ccccc1Cc1ccccc1)c1c(N)n(Cc2ccccc2)c(=O)[nH]c1=O	6%	?	-21%	nt	nt	nt	-4%	-3%	9	nt
COc1cccc(C2=NOC(C(=O)NC(C)C)C2)c1 (configuration not stated)	3%	-3%	19%	0%	6%	0%	2%	-1%	0	0%
Cc1nnc(SCC(=O)NCc2cccs2)[nH]c1=O	1%	2%	6%	10%	-2%	-2%	2%	3%	-2	-1%
Nc1nc2c(ncn2COC(CO)CO)c(=O)[nH]1	7%&-1%	4%	5%&3%	-26%	?	-18%	0%	12%	17&10	0%
COc1cc(/C=C/C(=O)/C=C(O)/C=C/c2ccc(O)c(OC)c2)ccc1O	2%	?	13%	nt	63%&76%[activator]	nt	-28%	-1%	-23	nt
CC(=O)NC1(NC(C)=O)CCN(C)C(c2ccccc2)C1C (configuration not stated)	-13%	-4%	5%	-2%	11%	-3%	1%	1%	11	2%
CN(C(=S)SCc1ccccc1)C1CCS(=O)(=O)C1 (configuration not stated)	3%	8%	-5%	1%	?	5%	-2%	1%	0	-1%
CCOc1ccc(C2C(C(=O)c3ccc(C)o3)=C(O)C(=O)N2Cc2cccnc2)cc1 (configuration not stated)	-2%	3%	-15%	24%	nt	nt	0%	1%	11	-8%
Cc1ccc(-c2cc(C(F)(F)F)nn2-c2ccc(S(N)(=O)=O)cc2)cc1	4%	8%	-15%	-3%	0%&5%&-2%	2%	-19%	1%	2	nt
COc1ccc(C(=O)c2ccccc2O)c(O)c1	6%	-6%	8%	nt	22%	nt	-2%	1%	4	nt
Cn1nnnc1SCC1=C(C(=O)O)N2C(=O)[C@@H](NC(=O)[C@H](O)c3ccccc3)[C@H]2SC1	3%	5%	-13%	?	0%	3%	?	-3%	7	-1%
C#C[C@]1(O)CC[C@H]2[C@@H]3CCC4=C(CCC(=O)C4)[C@H]3CC[C@@]21C	2%	?	1%	2%	6%	7%	-13%	0%	-5	-2%
CCCCC[C@H](O)/C=C/[C@@H]1[C@@H](C/C=C\CCCC(=O)O)[C@@H](O)C[C@H]1O	9%	?	-9%	35%	-4%&-4%&-3%	-14%	7%	1%	22	-3%
CCOC(=O)c1ccc(NC(=O)CCOc2ccc(OC)cc2)cc1	1%	14%	-5%	-3%	-4%	5%	-14%	4%	3	1%
CCCc1nn(C)c2c(=O)[nH]c(-c3cc(S(=O)(=O)N4CCN(C)CC4)ccc3OCC)nc12	1%	?	-7%	1%	-9%&-13%&-7%	0%	1%	0%	13	nt
CSc1ccccc1NC(=O)c1cc(CC(C)C)on1	-1%	?	4%	4%	-21%	4%	6%	3%	-9	0%
O=C(Cn1ncc2c1-c1ccccc1OC2)N1CCc2ccccc21	8%	-7%	2%	3%	-5%	1%	7%	1%	1	0%
Cn1nnnc1SCC1=C(C(=O)O)N2C(=O)[C@@H](NC(=O)[C@@H](O)c3ccccc3)[C@@H]2SC1	nt	nt	nt	nt	5%[24.8 µM]	nt	nt	nt	nt	nt
CN(C)CCOc1ccc(/C(=C(/CCCl)c2ccccc2)c2ccccc2)cc1	nt	nt	nt	nt	4%	nt	-15%	nt	nt	nt
CC(=O)SC1CC2=CC(=O)CC[C@]2(C)C2CC[C@@]3(C)[C@@H](CC[C@@]34CCC(=O)O4)C12 (some centres not stated)	nt	nt	nt	nt	-9%	nt	nt	nt	nt	nt
CNC(=O)c1c(I)c(C(=O)NCC(=O)Nc2c(I)c(C(=O)O)c(I)c(C(=O)NCCO)c2I)c(I)c(N(C)C(C)=O)c1I	2%	-4%	1%	nt	7%[24.8 µM]	nt	3%	0%	-13	nt
O=C(CO)C(O)C(O)C(O)CO (configuration not stated)	6%	0%	-15%	nt	-10%	nt	6%	-1%	-7	nt
CN1C2CCC1CC(OC(c1ccccc1)c1ccccc1)C2 (configuration not stated)	-6%&-13%	?	1%&-10%	-3%	?	-1%	-1%	7%	-7&1	-1%
CCOC(=O)c1cnn(-c2ccccc2)c1NC(=O)C(F)(F)C(F)(F)C(F)(F)F	0%	1%	8%	-9%	9%	9%	-3%	0%	-4	2%
O=C(O)c1ccc(Cl)c(S(=O)(=O)Nc2ccccc2N2CCOCC2)c1	2%	3%	-5%	-1%	-2%	0%	1%	1%	-25	0%
Cc1cccc(NC(=O)COC(=O)c2n[nH]c3ccccc23)c1C	3%	-16%	7%	nt	nt	nt	-2%	0%	-21	nt
CC1(C)SC2C(NC(=O)C3(N)CCCCC3)C(=O)N2C1C(=O)O (configuration not stated)	nt	nt	nt	nt	nt	nt	2%	nt	nt	nt
O=C1NC(=O)C(c2ccccc2)(c2ccccc2)N1	4%&3%&-6%&-2%	?	0%&4%&-1%&-9%	-17%&-3%&12%	0%&0%&4%&1%&-3%&-16%	8%&-7%&-1%	-3%&-1%	-1%&1%&3%	-7&2&-9&12	-1%&0%
O=C(c1cccnc1)N1CCN(Cc2cccc(F)c2)CC1	1%	?	2%	0%	4%	-4%	1%	0%	-3	-2%
COc1cc2[nH]c(C(=O)N3CC(C)OC(C)C3)cc2c(OC)c1OC (configuration not stated)	-1%	-9%	2%	0%	?	nt	12%	4%	-4	0%
Cc1cc2n(c(=O)c1C#N)CCCN2c1ccccc1	-5%	-16%	3%	9%	5%	0%	35%[activator]	1%	2	0%
Fc1ccc(-c2cn3ccccc3n2)cc1	-2%	-13%	-7%	-4%	-4%	-14%[11.5 µM]	-2%	2%	10	13%
Cc1cccc(N2C(N)=C(C#N)C(C#N)(C#N)C2c2ccccc2)c1 (configuration not stated)	13%	nt	nt	-7%	-16%	9%	?	nt	nt	6%
CSC1=C(C#N)C(c2ccccc2Cl)C(C(C)=O)=C(C)N1 (configuration not stated)	9%	?	10%	15%	0%	-2%	13%	1%	-16	0%
Cc1ccc(/C(=C/CN2CCCC2)c2ccccn2)cc1	nt	nt	nt	nt	-1%&-3%[24.8 µM]	nt	nt	nt	nt	nt

A second format for 4 compounds above:
Cn1nnnc1SCC1=C(C(=O)O)N2C(=O)[C@@H](NC(=O)[C@@H](O)c3ccccc3)[C@@H]2SC1
  Mito fusion act: nt	Chronic BCR inh: nt	Eya2 inh: nt	MBNL1 CUG block: nt	Menin-MLL TR inh: 5%[24.8 µM]	PKM2 activator: nt	S-ASM inh: nt	USP2a block: nt	TSHR antagonist: nt	GALK inh: nt
CN(C)CCOc1ccc(/C(=C(/CCCl)c2ccccc2)c2ccccc2)cc1
  Mito fusion act: nt	Chronic BCR inh: nt	Eya2 inh: nt	MBNL1 CUG block: nt	Menin-MLL TR inh: 4%	PKM2 activator: nt	S-ASM inh: -15%	USP2a block: nt	TSHR antagonist: nt	GALK inh: nt
CC(=O)SC1CC2=CC(=O)CC[C@]2(C)C2CC[C@@]3(C)[C@@H](CC[C@@]34CCC(=O)O4)C12 (some centres not stated)
  Mito fusion act: nt	Chronic BCR inh: nt	Eya2 inh: nt	MBNL1 CUG block: nt	Menin-MLL TR inh: -9%	PKM2 activator: nt	S-ASM inh: nt	USP2a block: nt	TSHR antagonist: nt	GALK inh: nt
CNC(=O)c1c(I)c(C(=O)NCC(=O)Nc2c(I)c(C(=O)O)c(I)c(C(=O)NCCO)c2I)c(I)c(N(C)C(C)=O)c1I
  Mito fusion act: 2%	Chronic BCR inh: -4%	Eya2 inh: 1%	MBNL1 CUG block: nt	Menin-MLL TR inh: 7%[24.8 µM]	PKM2 activator: nt	S-ASM inh: 3%	USP2a block: 0%	TSHR antagonist: -13	GALK inh: nt

Assay outcomes deposited in PubChem BioAssay by National Center for Advancing Translational Sciences (NCATS).

Not all compounds are listed (hit frequency here may not be typical).
